# Menin-MLL FL inh – inhibitors of human menin-MLL interaction, wild-type MLL peptide; 290,000 tested, under 10 active; Fluorescence polarization, fluorescein-MLL peptide displacement from menin; FP activity change, % at 61.4 µM; AID 1766; inconclusive = falling polarisation curve, or a change in total fluorescence; inactive = total fluorescence flat and polarisation flat or rising; no compound was filed as active; the % refers to the polarisation; negative = inhibition;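 further: % of control where 0% means no effect; inhibitors lower the polarisation; unlabelled MLL peptide was the positive control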
# TRPML1 ag – agonists of human TRPML1 channel | Q9GZU1 | TRPML1-expressing cells, Ca2+ dye fluorescence, FDSS; host cell line not named in the record; reference of the full effect not given here | activation, % (concentration not given with the values) | 410,000 tested, 0.12% active; in the data active = activation above about 50%; inconclusive = about 30% to 50%; inactive = below about 30%; further: 0% is about no effect; the text of the record puts the active cut at 80%
# Target sequence (Q9GZU1 whole entry, looked up): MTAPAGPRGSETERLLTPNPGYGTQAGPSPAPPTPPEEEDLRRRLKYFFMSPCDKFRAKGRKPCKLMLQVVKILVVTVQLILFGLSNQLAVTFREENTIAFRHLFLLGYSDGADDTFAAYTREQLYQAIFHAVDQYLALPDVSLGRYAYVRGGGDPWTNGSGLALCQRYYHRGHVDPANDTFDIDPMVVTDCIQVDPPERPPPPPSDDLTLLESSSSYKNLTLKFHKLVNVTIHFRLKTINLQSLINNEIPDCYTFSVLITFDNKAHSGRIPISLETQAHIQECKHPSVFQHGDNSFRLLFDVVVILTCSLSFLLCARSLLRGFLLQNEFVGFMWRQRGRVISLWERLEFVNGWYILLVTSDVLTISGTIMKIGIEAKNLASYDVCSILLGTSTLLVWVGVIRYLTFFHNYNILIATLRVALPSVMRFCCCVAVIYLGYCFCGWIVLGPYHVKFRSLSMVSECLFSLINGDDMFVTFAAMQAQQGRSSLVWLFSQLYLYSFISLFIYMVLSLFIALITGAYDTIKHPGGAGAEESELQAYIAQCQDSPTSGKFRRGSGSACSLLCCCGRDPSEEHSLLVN
#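 Kinetic FDSS Ca2+ read in Tet-induced TRPML1-DL cells (ABD Ca8 dye plus quencher, 45-90 min RT loading): baseline, then compound, then 110 s agonist window; EC80 agonist 54-4 at 4uM final added afterwards for a 110 s antagonist window.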
# gsp antag – antagonists of gsp mutant (McCune-Albright syndrome); gsp-mutant cells, cAMP HTRF, 30 min; control for the full effect not named in the record; Potency, µM (series often up to 76.9 µM), without a hit: at the highest dose activity change, negative = inhibition, most hits filed as inhibitors; 340,000 tested, 0.4% active; active = falling curve of any shape with a large fitted effect; inconclusive = falling curve, mostly with a smaller effect; inactive = flat or rising curve; cell line not stated here;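 further: intracellular cAMP measured with PDE inhibitor Ro 20-1724 present during compound exposure; potency means the concentration at half of the fitted maximal effect; on the % scale 0 is the no-effect control and ±100 the full control effect; nearly all actives have a fitted effect of over 65% in size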
#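 Cells, 2000/well, grown 16–24 h in DMEM 10% FBS with 0.5 mg/ml G418, then compounds plus […] (300 uM addition stock), 30 min at 37C. cAMP read by HTRF (cAMP-d2 and anti-cAMP antibody-K in lysis buffer) after 30 min RT.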
# TRPML1 inh – inhibitors of human TRPML1 channel; Q9GZU1; 390,000 tested, 0.02% active; TRPML1-inducible cells, Ca2+ dye fluorescence, FDSS; active compounds read low; inhibition of EC80 agonist-evoked calcium signal; activity change, negative = inhibition, % (no concentration beside the values); AID 624415; in the data active means activity change below about -50%; inconclusive means about -30% to -50%; inactive means above about -30%;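 further: stimulus is agonist 54-4 at its EC80 concentration; on the % scale 0 is the no-effect control and ±100 the full control effect; compound concentration not given in the record; the text of the record puts the active cut at -80%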
#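 Tet-induced TRPML1-DL cells loaded with Ca8 no-wash calcium dye were read kinetically on FDSS. Compound addition was followed by EC80 agonist 54-4 (4 uM final); inhibition was read over 110 s.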
# ClpP mod – qHTS Assay for Activators of ClpP; Potency, µM (top dose mostly 57.5 µM), for inactives: at the top dose activity change, negative = active; 340,000 tested, 1.9% active; purified B. subtilis ClpP, FRET peptide cleavage, 20 min; AID 651965, 2013; active = well fitted falling curve with a large enough effect; inconclusive = small, poorly fitted or top-dose-only effect; inactive = no such curve, though single readings can be large or run the other way; further: potency means the concentration at half of the fitted maximal effect; the source files actives as falling curves though it sought activators and does not explain the sign; nearly all actives have a fitted effect of over 65% in size; many hits overshoot -100%
# Target sequence (P80244 whole entry, looked up): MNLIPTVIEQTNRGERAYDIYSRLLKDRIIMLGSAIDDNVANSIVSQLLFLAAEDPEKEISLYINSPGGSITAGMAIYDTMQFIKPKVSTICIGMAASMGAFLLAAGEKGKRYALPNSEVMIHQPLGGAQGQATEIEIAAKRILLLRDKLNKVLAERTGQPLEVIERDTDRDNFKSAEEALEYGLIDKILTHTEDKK
#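 Buffer: 100 mM Tris/HCl pH8, 100 mM KCl, 0.05% low protease BSA, 2.5% glycerol, 0.01% Tween-20. ClpP 10 microg/mL final; 20 min RT; delta FRET normalized to ADEP and DMSO controls.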
# gsp agonist – activates gsp, the McCune-Albright syndrome mutation | gsp mutant cells, cAMP HTRF, 30 min; control for the full effect not named in the record | 340,000 tested, 0.13% active | Potency, µM (titrated, usually from 76.9 µM), for the others: at the highest dose activation (cAMP increase), actives largely listed as activators; active = well fitted activation curve with a large enough effect; inconclusive = small, poorly fitted or top-dose-only effect, or another doubt; inactive = no such curve, though single readings can be large or run the other way; cell line not stated here;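 further: phosphodiesterase inhibitor Ro 20-1724 added with compounds to block cAMP breakdown; potency means the concentration at half of the fitted maximal effect; nearly all actives have a fitted effect of over 60% in size; about a fifth of the inactives were tested at one dose only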
#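 Cells stably selected in G418 were plated at 2000/well, grown 16-24 hr, then given compounds in DMSO with the PDE inhibitor […] (300 uM solution added) for 30 min at 37C; cAMP was read by HTRF.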
# * = called active by the depositor; ? = inconclusive; / = no result given; & = joins results of further samples; [ ] = dose if it differs, or a comment.
SMILES,Menin-MLL FL inh,TRPML1 ag,gsp antag,TRPML1 inh,ClpP mod,gsp agonist
CCOC(=O)c1[nH]c2c(c1C)C(=O)CC(c1ccc(OCC)c(OC)c1)C2 (centres undefined),5.4,0.0,-3.4%,-28.4,1.6%,-15.2%
CCOc1ncnc2c1[nH]c1ccccc12,0.1,-0.5,-14.9%,-0.7,-3.5%,10.0%[15.4 µM]
O=C(COc1ccc(F)cc1)Nc1nc(-c2ccccn2)cs1,/,-0.1,-10.4%,8.9,-12.7%,-5.5%
COc1cccc(-c2nc(NCc3cccnc3)c3ccccc3n2)c1O,6.3,0.3,-16.2%,-8.6,/,1.3%
CCc1ccc(-n2nnnc2SCC(=O)NNC(=O)c2ccco2)cc1,2.3,-0.5,-3.5%,16.0,-0.4%,-44.6%[inhibitor]
Cn1c(/C=C/c2ccc(Cl)cc2Cl)c([N+](=O)[O-])c(=O)n(C)c1=O,-16.6,/,-7.2%,/,-0.3%,14.6%
CCN(C(=O)Cn1c(=O)oc2cc(S(=O)(=O)N3CCCCC3)ccc21)c1ccccc1,/,-0.3,/,-17.3,-1.9%,/
COc1ccc2c(c1)S(=O)(=O)c1ccccc1N2,2.0,-0.5,-13.1%,-3.6,/,-16.5%
Cc1ccc(C)c(Nc2nc(-c3cccnc3)cs2)c1,-0.5,0.7,-4.0%,-6.1,/,-2.2%
COc1ccc(Cl)cc1NC(=O)c1ccc2nc(Cc3ccccc3)oc2c1,/,1.3,/,-18.2,?,/
O=c1c2cc3c(cc2nc2sc(Nc4ccccc4)nn12)OCO3,/,0.3,/,19.7,-4.8%,/
CCCn1c(N)c(N(CCOC)C(=O)c2ccc(N(C)S(=O)(=O)c3ccc(C)cc3)cc2)c(=O)[nH]c1=O,/,0.4,6.2%,12.4,-2.3%,-18.2%
CCN(CC(=O)Nc1cc(Cl)ccc1C)C(=O)CN1C(=O)NC(CC)(c2ccccc2)C1=O (centres undefined),/,4.2,3.1%,5.7,1.1%,19.5%
O=C(COC(=O)/C=C/c1cccc(C(F)(F)F)c1)NCc1ccc(F)cc1,-4.6,-0.1,20.5%,8.4,1.7%,-42.7%[inhibitor]
CC1CCCC(C)N1C(=O)c1cc(-c2ccc3c(c2)OCO3)on1 (centres undefined),-2.1,-0.4,-2.9%,6.2,/,-20.1%[15.4 µM]
COc1ccccc1CNC(=O)CSc1cc(=O)n(C)c2ccccc12,1.0,1.3&-0.9,0.8%,2.7&0.7,-4.8%,2.1%[15.4 µM]
O=C(CNS(=O)(=O)c1ccc(Br)s1)NC1CCCc2ccccc21 (centres undefined),5.2,0.2,3.7%,-11.7,-0.5%,?
Cc1ccc(NC(=O)c2cc3ccccn3n2)cc1F,/,-1.2,/,7.1,-3.5%,/
O=C(Cc1ccc(Cl)c(Cl)c1)Nc1cccc2ncccc12,5.8,-1.0,3.9%,7.4,1.7%,1.7%[15.4 µM]
O=C(N/N=C/C(Br)=C/c1ccccc1)C(O)c1ccccc1 (centres undefined),-3.8,1.2,-2.5%,13.8,/,-4.3%
O=C(Nc1ccc2c(c1)CCC2)c1cc2ccccc2o1,1.1,2.0,2.3%,-2.1,-0.1%,-8.1%[15.4 µM]
CC(=O)c1ccc(N2CCN(S(=O)(=O)c3cc(-c4cc(C)no4)ccc3C(C)C)CC2)cc1,0.6,0.3,4.1%,21.5,-16.6%,?
COCCCNC(=O)CC1C[C@H](C(=O)N2CCCCC2)[C@@]2(CCc3ccccc3)c3[nH]c4ccccc4c3CCN2C1=O (some centres undefined),/,-0.6,6.2%,6.1,-3.0%,/
CN(C)c1cc[n+](CC(=O)Nc2c(Cl)cc(Cl)cc2Cl)cc1,-3.7,1.2,-5.8%,-5.8,/,-0.8%[15.4 µM]
COc1cnc(SCc2ccc(Cl)c(Cl)c2)nc1Cl,9.0,3.0,7.5%,-8.9,-2.0%,9.0%
O=C(CSc1nccn1Cc1ccc(F)cc1)NCc1ccccc1,/,1.3,/,-3.4,0.6%,/
CCCCN(C(=O)C1CC(=O)N(CCc2ccc(OC)c(OC)c2)C1)c1c(N)n(CC(C)C)c(=O)[nH]c1=O (centres undefined),/,0.9,2.2%,-1.9,0.7%,-3.1%
S=C(NCC1CCCO1)N1CCN(c2ccc(Cl)c(Cl)c2)CC1 (centres undefined),-2.0,0.2,/,-4.6,/,2.8%[15.4 µM]
O=C(N[C@@H](Cc1ccccc1)C(=O)O)c1cccs1,-5.2,-0.3,0.8%,3.3,/,-3.5%[15.4 µM]
Cn1c(SCC(=O)Nc2cccc(S(=O)(=O)NC3=NCCCCC3)c2)nnc1-c1ccncc1,-3.6,-0.4,4.9%,1.2,-19.9%,-16.3%
COc1cc(OC)cc(C(=O)NNC(=O)CCC(=O)c2cccs2)c1,/,-0.1,-1.8%,-6.8,-4.6%,-6.4%[15.4 µM]
COc1ccc(-c2nnn(CC(=O)NC(=O)NC3CCCCC3)n2)cc1OC,/,1.6,-6.3%,-2.1,3.9%,-9.9%
N=c1c2c3c(sc2ncn1Cc1ccco1)CCCCC3,-2.4,0.9,-3.0%,-27.7,-1.0%,4.6%
C=CCNC(=O)C1CC(c2cccc(OC)c2)=NO1 (centres undefined),1.9,0.1,-0.6%,-10.4,-4.6%,2.2%
COc1cccc(/C=C2\SC(=O)N(CCC(=O)NCCCn3ccnc3)C2=O)c1,2.5,-0.8,-4.8%,11.3,-1.6%,26.4%
CC[C@@]1(C(=O)OC)N[C@H](CN(C)C(=O)Nc2ccc(OC)cc2)[C@@H]2C(=O)N(C)C(=O)[C@@H]21,/,-0.3,6.3%,-1.0,-1.6%,/
Cc1ccccc1Nc1c([N+](=O)[O-])ccc2c1=NC1(CCCCC1)N=2,-2.5,-0.6,-15.1%,6.6,-0.6%,2.8%
C=CC[N+](C)(C)C/C(Cl)=C(\Cl)c1ccccc1,5.5,0.8,-4.1%,12.2,0.6%,18.6%
COc1ccc(S(=O)(=O)NCc2ccc(C(=O)NCCCN3CCCC(C)C3)cc2)cc1 (centres undefined),/,-0.1,3.8%,37.6,-1.6%,2.4%
O=C(Nc1cc(S(=O)(=O)N2CCOCC2)ccc1N1CCOCC1)c1cccs1,/,0.8,-2.2%,11.1,-23.2%,15.7%
CN(CC(=O)Nc1ccc(Cl)c(C(F)(F)F)c1)C(=O)CCC(=O)c1ccccc1,/,0.2,-14.2%,3.9,1.2%,-41.3%[inhibitor]
Cc1ccc(C(=O)O/N=C2\CCS(=O)(=O)c3sccc32)cc1,0.2,0.5,8.6%,21.8,0.0%,-10.4%
CC1OC(Nc2cccc3ccccc23)C(O)C(O)C1O (centres undefined),-0.2,-0.3,1.8%,-14.1,94.3%,7.6%
CCn1c2c(c(C)cc1=O)C(=O)CC(C)(C)C2,5.2,-0.5,9.6%,19.5,26.8%,-47.5%
O=C(NC(=S)Nc1ccccc1Br)c1ccco1,-2.3,1.2,3.9%,5.2,/,-3.2%[15.4 µM]
O=C(COC(=O)/C=C/c1ccc(Cl)cc1)NCCC1=CCCCC1,-27.4,-0.6,-4.6%,11.3,1.1%,4.4%[15.4 µM]
CC12CCC(=O)N1C(C(=O)NNC(=O)c1ccccc1F)CS2 (centres undefined),/,0.7,11.5%,-3.6,0.2%,31.7%
CC(=O)c1cccc(NC(=O)CN(C2CCCCC2)S(C)(=O)=O)c1,-0.4,-0.5,9.4%,4.5,-0.2%,-32.7%[inhibitor]
CC(=O)CSc1nnc2cc(C)c3cc(C)cc(C)c3n12,/,1.5,/,-9.5,?,/
CC(C(=O)O)N1C(=O)/C(=C/c2cccn2C)SC1=S (centres undefined),?,0.2,-0.4%,1.6,-0.2%,-52.8%[inhibitor]
Cc1cccc(OCC(=O)NCC(=O)N=Nc2c(O)[nH]c3ccc([N+](=O)[O-])cc23)c1,2.5,0.4,0.2%,-16.6,/,24.2%
COc1cccc(CNC(=O)c2cccnc2Sc2ccccc2)c1,/,-0.8,-7.7%,4.2,-1.1%,10.9%
Nc1nnc(CC(=O)N/N=C/c2ccc([N+](=O)[O-])cc2)s1,-2.0,0.1,14.9%,6.0,1.4%,0.5%
CC(C)c1ccc(NC2CCCN(C(=O)CCN3CCCCO3)C2)cc1 (centres undefined),/,0.2,8.3%,-0.6,1.3%,-7.3%
COC(=O)c1c(C(=O)OC)c(-c2ccc(OC)cc2)n2c1CS(=O)(=O)C2,2.0,0.3,-9.9%,-9.6,-2.1%,?
Cc1cccc(N2CN=c3s/c(=C\c4ccncc4)c(=O)n3C2)c1,0.8,-0.3,8.6%,2.2,-1.9%,-8.2%
Cc1ccc(NS(=O)(=O)c2ccc(NC(=O)c3ccccc3C(=O)O)cc2)cc1C,/,0.8,-4.5%,22.8,-1.2%,-26.2%
CN(C(=O)CN1C(=O)C2C3CC(C(Br)C3Br)C2C1=O)C1CCCCC1 (centres undefined),-3.0,6.5,-5.4%,10.7,/,3.6%
CN(C)C(CNC(=O)c1ccc(OCc2cn3ccccc3n2)cc1)c1ccco1 (centres undefined),/,0.8,3.7%,-11.2,4.2%,-26.1%
O=C(O)CC(Cc1ccccc1)c1ccc2c(c1)OCO2 (centres undefined),-4.6,0.5,-1.9%,-7.9,-3.7%,-24.2%
# More entries
SMILES,Menin-MLL FL inh,TRPML1 ag,gsp antag,TRPML1 inh,ClpP mod,gsp agonist
O=C(CN(Cc1ccco1)C(=O)c1ccccc1)Nc1ccc(Cl)c(Cl)c1,5.6,1.8,?,7.3,-1.6%,7.7%
CCN(CC)S(=O)(=O)c1cccc(C(=O)N/N=C/c2ccccc2OCC(=O)O)c1,-0.2,-0.2,9.5%,2.5,/,1.5%
CC(=O)C1=C(C)Nc2ncnn2C1c1ccc(Cl)cc1 (centres undefined),1.3,-0.2,4.7%,28.3,-3.2%,0.1%
CCN(CC)C(=O)CCn1nc(-c2ccc(C)cc2)c2ccccc2c1=O,-0.7,2.8,-12.6%,14.1,-2.6%,2.9%
CC(=O)Nc1ccccc1NC(=O)C(F)(F)F,-2.9,0.5,8.8%,-17.4,-1.5%,-60.0%[inhibitor]
CCN(CC)CCN1CNC(=S)N(c2ccccc2OC)C1,-0.1,0.5,1.7%,1.3,/,-7.6%[15.4 µM]
CCOC(=O)c1cnc2c(CC)cccc2c1NCCCN1CCOCC1,-0.1,/,-10.6%,/,-16.2%,-22.7%

# Single records, as listed above. Order of screens: Menin-MLL FL inh, TRPML1 ag, gsp antag, TRPML1 inh, ClpP mod, gsp agonist
# Record of `CC(=O)C1=C(C)Nc2ncnn2C1c1ccc(Cl)cc1` (centres undefined) = 1.3, -0.2, 4.7%, 28.3, -3.2%, 0.1%
# Record of `CCOC(=O)c1cnc2c(CC)cccc2c1NCCCN1CCOCC1` = -0.1, /, -10.6%, /, -16.2%, -22.7%
# Record of `O=C(CN(Cc1ccco1)C(=O)c1ccccc1)Nc1ccc(Cl)c(Cl)c1` = 5.6, 1.8, ?, 7.3, -1.6%, 7.7%

# Compound activity deposited in PubChem by National Center for Advancing Translational Sciences (NCATS).
